Bioassay records from PubChem.
H5N1 CPE: antiviral screen in MDCK cells, H5N1 avian flu; inhibition, % at 50 µM; cytopathic effect, luminescence, 72 h; active compounds read high; no value below 0 was filed and about half of the inactive calls have no number; reference of the scale not given here; AID 740; 96,000 tested, 0.07% active; in the data active means inhibition above about 25%
Active calls of the source: *; i = inactive. Some of the compounds tested (hit frequency here may not be typical).

SMILES	H5N1 CPE
CS(=O)(=O)N1CCc2cc(S(=O)(=O)Nc3ccc4oc5c(c4c3)CCCC5)ccc21	5.3
COC(=O)c1ccc(Cl)c(NC(=O)c2ccc(-c3ccccc3)cc2)c1	i
COc1cc2nc(SCc3ccc(Cl)cc3Cl)n(Cc3cccs3)c(=N)c2cc1OC	i
COc1ccc(C2NC(=S)NC3=C2CCc2cc(OC)ccc23)cc1 (stereo unspecified)	i
CCCC(C)NS(=O)(=O)c1ccccc1 (stereo unspecified)	i
C/C(=N/n1cnnc1)c1cccnc1	0.9
Cc1cccc(N2CCN(C(=O)c3cn(C)c(=O)c4c3c3ccccc3n4C)CC2)c1C	0.2
COc1cc(OC)cc(-n2nnnc2SCC(=O)N2CCCC2)c1	1.8
CCOC(=O)c1oc2nc3c(cc2c1N)COC(C)(C)C3	i
Cn1cnnc1SCC(=O)Nc1ccc2nc(SCc3cccc4ccccc34)sc2c1	i
CC1(C)CC(=O)C=C(OC(=O)c2ccc(Cl)cc2)C1	0.2
CC(NC(=O)CSc1nc2ccccc2c(=O)[nH]1)c1ccccc1 (stereo unspecified)	i
COC(=O)c1cc(NC2c3ccccc3C(=O)N2CCN2CCOCC2)cc(C(=O)OC)c1 (stereo unspecified)	i
COCc1[nH]nc2c1C1(CCC3(CC1)OCCO3)C(C#N)=C(N)O2	0.5
Cc1c(N=CN2CCOCC2)c(=O)n(C)c(=O)n1C	i
CCn1c(SCC(=O)O)nnc1-c1cc2c(C)nn(-c3ccccc3)c2s1	1.2
O=C(C1=C(O)C(=O)N(CCN2CCOCC2)C1c1cccnc1)c1cc2ccccc2o1 (stereo unspecified)	0.6
CCOC(=O)C1CCCN(Cc2sccc2C)C1 (stereo unspecified)	i
Cc1nn(Cc2ccccc2Cl)c2sc(C(=O)NCCCn3ccnc3)cc12	i
CCOC(=O)CC(=O)Nc1cc(Cl)ccc1O	0.2
Cc1ccc(C2(C(F)(F)F)NC(=O)N3C(=C2C#N)Nc2ccccc23)cc1 (stereo unspecified)	i
O=C(Nc1ccc(F)cc1)NC1(C(=O)NCc2ccco2)CCCCC1	0.1
CCn1c2ccccc2c2nnc(SCC(=O)Nc3c(C)n(C)n(-c4ccccc4)c3=O)nc21	i
CCc1nc(SCC(=O)N2c3ccccc3Sc3ccccc32)c2ccccc2n1	i
Cn1c(=O)c2[nH]c(Nc3ccccc3)nc2n(C)c1=O	2.9
C=CCSc1nc(N)c(C#N)c(-c2ccccc2)c1C#N	i
COc1ccc(-c2nnn(Cc3nc(N)nc(N4CCCCC4)n3)n2)cc1	i
Cc1ccc(NC(=O)CN(c2ccc3c(c2)OCO3)S(=O)(=O)c2c(C)n[nH]c2C)cc1	i
O=C(c1ccco1)N(CCCN1CCOCC1)c1nc(-c2ccc(Cl)cc2)cs1	0.6
CCOc1ccccc1NC(=O)Cn1c(=O)n(CCC(=O)NC2CCCC2)c(=O)c2ccccc21	2.0
Cc1cc(C)n(-c2nc3ccccc3n3nnnc23)n1	i
CCOC(=O)N1CCN(C(=O)CSc2nnc(Cn3c(=O)sc4ccccc43)n2C)CC1	0.9
CCc1cc2c(=O)c(-c3cnn(-c4ccccc4)c3)c(C)oc2c(CN2CCCCC2)c1O	0.0
Cc1c([N+](=O)[O-])c(C(=O)N2CCCC2)nn1C	i
CCOC(=O)c1c(-c2ccc(Cl)cc2)cn2ccccc12	3.6
O=C1c2ccccc2C(O)(Cc2ccccc2)N1c1ccc2c(c1)OCO2 (stereo unspecified)	i
CCOC(=O)C1CCN(C(=O)/C=C/c2ccccc2OC)CC1	0.2
CC(C)C(=O)Nc1c(-c2cccs2)c(=O)c2ccccc2n1C	i
CCN1CCCC1CN=Cc1c(O)n(-c2ccccc2)c(=O)c2ccccc12 (stereo unspecified)	i
O=C(N/N=C/c1cccc(Oc2ccccc2)c1)c1cccc(Br)c1	0.4
COC(=O)c1ccc(-n2nnnc2SCC(=O)Nc2ccccc2OC)cc1	0.9
Cc1nn(-c2ccc(F)cc2)c2nc(N)c(C#N)c(-c3cccs3)c12	i
Cc1cc(Nc2ccccc2)nn1C(=O)c1ccc(Br)cc1	i
Cc1cc(C)c(C(=O)CSc2n[nH]c(=O)n2C2CC2)cc1C	1.5
O=C(O)C1CSC(CCc2ccccc2)N1 (stereo unspecified)	i
COc1ccc(Cc2nc(C(=O)NCc3ccccc3OC)cs2)cc1	0.4
O=C(N/N=C/c1c[nH]c2ccc(Br)cc12)c1ccn(Cc2ccc(Cl)cc2Cl)n1	i
CC(C)CSc1ncc(-c2cccc(C(F)(F)F)c2)cn1	6.6
COc1ccc(C(=O)N2CCN(c3cccc(Cl)c3)CC2)c(OC)c1	i
CC1CC(C)CN(Cc2nc3c(c(=O)n(C)c(=O)n3C)n2CCN2CCOCC2)C1 (stereo unspecified)	2.1
Cc1cc(C)c2c(c1)c(C)cc1nnc(SCC(=O)NCc3ccco3)n12	3.2
CCCCSC1=C(C#N)C(c2ccccc2C)C(C(=O)OCC)C(=O)N1 (stereo unspecified)	i
CCOC(=O)CNC(=O)CSc1nnc(-c2ccco2)n1Cc1ccco1	i
O=C1CC(SC(=Nc2ccccc2)Nc2ccccc2)C(=O)N1c1cccc2ccccc12 (stereo unspecified)	i
CCC(C)NCC(=O)Nc1ccc(-c2nc3cc(NC(=O)CNC(C)CC)ccc3o2)cc1 (stereo unspecified)	i
COc1ccc(-c2noc(CSc3ccccc3)n2)cc1OC	1.1
CCS(=O)(=O)N1CCC(NC(=O)C2CCCCC2)CC1	i
Cc1ccc(-n2c(Cn3nc(C(F)F)cc3C(F)F)n[nH]c2=S)cc1	0.3
NC(=O)c1c(NC(=O)c2cccs2)sc2c1CCCCCC2	i
Cc1ccc(C(C(=O)NC2CCCCC2)N2CCOCC2)cc1 (stereo unspecified)	0.9

(more compounds)
SMILES	H5N1 CPE
CCC(CO)Nc1ncnc2c1cnn2-c1ccc(OC)cc1 (stereo unspecified)	0.1
Cc1cccc(C(=O)N2CCN(c3ccc([N+](=O)[O-])c(NCc4ccco4)c3)CC2)c1	i
CCOC(=O)N1CCC(N2C(=O)c3ccccc3C2Nc2cc(OC)c(OC)c(OC)c2)CC1 (stereo unspecified)	0.0
O=C(CSc1nnc(-c2ccccc2)o1)OCc1ccccc1	i
CC(C)CC[n+]1ccn(-c2nc3ccccc3nc2[N-]S(=O)(=O)c2ccccc2)c1	i
COC(=O)c1ccccc1NC(=O)c1ccc(NS(C)(=O)=O)cc1	1.2
Cc1cc(Cl)ccc1NC(=S)Nc1cccnc1	0.2
COc1ccc(C2=Nn3c(nnc3-c3ccccc3)SC2)cc1OC	1.9
O=C(O)CN1C(=O)CC(Cc2ccccc2)C1=O (stereo unspecified)	i
Cc1ccc2[nH]c(=O)c(NC(N)=S)nc2c1	i
O=C(CCCNS(=O)(=O)c1cccc2nsnc12)N1CCCCC1	i
Cc1ccc(C(=O)NNC2=NCCC2)cc1	0.9
CCN(C(=O)CSc1nnc(Cn2nnc3ccccc32)o1)c1nc(-c2ccccc2)cs1	i
COc1ccc(-c2nc(C#N)c(N3CCC(C(N)=O)CC3)o2)cc1	1.2
CN(C(=S)Nc1ccccc1F)C1(c2ccccc2Cl)CCCCC1=O (stereo unspecified)	0.7

Part of the list above in order of length of the SMILES, high to low.
SMILES	H5N1 CPE
Cc1cccc(C(=O)N2CCN(c3ccc([N+](=O)[O-])c(NCc4ccco4)c3)CC2)c1	i
CS(=O)(=O)N1CCc2cc(S(=O)(=O)Nc3ccc4oc5c(c4c3)CCCC5)ccc21	5.3
O=C(N/N=C/c1c[nH]c2ccc(Br)cc12)c1ccn(Cc2ccc(Cl)cc2Cl)n1	i
CCOC(=O)N1CCN(C(=O)CSc2nnc(Cn3c(=O)sc4ccccc43)n2C)CC1	0.9
Cc1ccc(C2(C(F)(F)F)NC(=O)N3C(=C2C#N)Nc2ccccc23)cc1 (stereo unspecified)	i
Cn1cnnc1SCC(=O)Nc1ccc2nc(SCc3cccc4ccccc34)sc2c1	i
CCn1c(SCC(=O)O)nnc1-c1cc2c(C)nn(-c3ccccc3)c2s1	1.2
COCc1[nH]nc2c1C1(CCC3(CC1)OCCO3)C(C#N)=C(N)O2	0.5
Cc1nn(Cc2ccccc2Cl)c2sc(C(=O)NCCCn3ccnc3)cc12	i
COc1ccc(-c2nc(C#N)c(N3CCC(C(N)=O)CC3)o2)cc1	1.2
COC(=O)c1ccccc1NC(=O)c1ccc(NS(C)(=O)=O)cc1	1.2
Cc1cc(C)c(C(=O)CSc2n[nH]c(=O)n2C2CC2)cc1C	1.5
COc1cc(OC)cc(-n2nnnc2SCC(=O)N2CCCC2)c1	1.8
Cc1cc(Nc2ccccc2)nn1C(=O)c1ccc(Br)cc1	i
C=CCSc1nc(N)c(C#N)c(-c2ccccc2)c1C#N	i
CCOC(=O)C1CCCN(Cc2sccc2C)C1 (stereo unspecified)	i
CCCC(C)NS(=O)(=O)c1ccccc1 (stereo unspecified)	i
C/C(=N/n1cnnc1)c1cccnc1	0.9

The listing continues.
SMILES	H5N1 CPE
COc1cc(OC)nc(Oc2ccccc2C(=O)Oc2ccccc2Cl)n1	i
O=C(CN1CCN(c2cccc(C(F)(F)F)c2)CC1)Nc1cccc(C(F)(F)F)c1	i
CCC1Oc2ccc(Cl)cc2N(CC(=O)O)C1=O (stereo unspecified)	i
Cc1ccc(NC(=O)c2ccccc2F)nc1	i
Cc1ccc(S(=O)(=O)N2CCN(S(C)(=O)=O)C2c2ccccc2)cc1 (stereo unspecified)	i
Cn1nnc2cc(C(=O)NCc3ccco3)ccc21	4.0
CC[n+]1c(/C=C(\C)SC)sc2ccccc21	0.5
Cc1cccc(-n2nc3c(c2NC(=O)c2ccc(Br)o2)CSC3)c1C	0.3
CCS(=O)(=O)NCc1ccc2[nH]c3c(c2c1)CCCC3	i
CCC(CC)c1nnc(NC(=O)C2COc3ccccc3O2)s1 (stereo unspecified)	0.4
COc1cc(N)ccc1Cc1ccc(N)cc1OC	i
COc1ccccc1S(=O)Cc1ccc(C(=O)NCCc2ccc(Cl)cc2)o1 (stereo unspecified)	2.6
Cc1nn(-c2ccccc2)c2nc(=O)n(-c3ccccc3)cc12	i
O=C1NCCCN1Cc1ccc(F)cc1	i
Cc1cccc(NC(=O)Cc2cccs2)n1	0.4
C=CCOc1ccc(CNC(C)(C)CO)cc1OC	i
CCOC(=O)c1c(N)sc(C(=O)N(C)C)c1C	i
O=C(Nc1nc2ccc(S(=O)(=O)N3CCCCC3)cc2s1)c1cccnc1	1.4
CS(=O)(=O)N(Cc1ccccc1)c1ccc(C(=O)N2CCc3ccccc3C2)cc1	1.3
COc1cccc(CN2CCSCC2)c1	i
O=C(C1CCCN1S(=O)(=O)c1ccc(Cl)cc1)N1CCOCC1 (stereo unspecified)	i
CCOc1ccc(N2CC(C(=O)Oc3ccccc3)CC2=O)cc1 (stereo unspecified)	i
CCOC(=O)c1cnc(SC)nc1Oc1cccc(NS(=O)(=O)c2ccc(C)cc2)c1	i
O=C(c1cccs1)c1coc2ccc(O)c(CN(CCO)CCO)c12	0.9
COC(=O)c1ccccc1NC(=O)C1CCCN(c2nnc(-n3cccc3)s2)C1 (stereo unspecified)	0.1
Cc1ccc(NC(=O)c2cnn(-c3ccccc3)c2NC(=O)c2ccco2)cc1	i
O=C(Nc1ncccc1Cl)C1COc2ccccc2O1 (stereo unspecified)	i
O=c1[nH]n(-c2ccccc2)c(=O)c(Cl)c1Cl	0.5
COc1ccc(-c2c(C)nn(-c3ccccc3)c2N)cc1	i
Cc1n[nH]c(C)c1S(=O)(=O)N1CCCC(C(=O)N2CCc3ccccc32)C1 (stereo unspecified)	0.4
CCCCn1c(CNC(=O)C(C)(C)C)nc2ccccc21	2.4
COc1ccc(N2CCN(C(=O)C34CCC(C)(C(=O)C3)C4(C)C)CC2)cc1 (stereo unspecified)	1.6
COc1ccc(C)cc1NC1=C(Cl)C(=O)N(C2CCCCC2)C1=O	i
CN1CCN(C(=O)c2cc(Cl)ccc2Cl)CC1	0.6
Cc1ccc(C)c2c1sc(=NC(=O)CN1C(=O)CCC1=O)n2C	i
O=C(c1ccc2c(c1)OCO2)N(Cc1ccco1)C1(C(=O)NC2CCCCC2)CCCCC1	i
CCCC(=O)N1CCN(c2nc(CC(C)C)c3c(c2C#N)CCC3)CC1	i
C=CCNC(=O)c1cc2c(C(F)(F)F)nn(C)c2s1	i
CC(C)(C)n1nnnc1CN(Cc1ccco1)Cc1cc2cc3c(cc2[nH]c1=O)OCO3	1.7
O=C(CN1C(=O)c2ccccc2C1=O)NCc1ccncc1	2.4
Cc1cc(C)n2cc(CSc3nnc(SCc4cn5c(C)cc(C)nc5n4)s3)nc2n1	4.0
C=CCC1c2cccc(C(=O)OC)c2C(=O)N1c1ccccc1 (stereo unspecified)	i
CCc1nnc(NC(=O)CCN2C(=O)c3ccccc3C2=O)s1	i
CCOC(=O)N1CCN(C(=O)c2ccc(C)c(S(=O)(=O)Nc3ccccc3)c2)CC1	1.1
Cc1ccc(NS(=O)(=O)c2ccc(CCC(=O)O)cc2)cc1	i

The last 2 compounds of the section before come first, to join the parts.
SMILES	H5N1 CPE
CCOC(=O)N1CCN(C(=O)c2ccc(C)c(S(=O)(=O)Nc3ccccc3)c2)CC1	1.1
Cc1ccc(NS(=O)(=O)c2ccc(CCC(=O)O)cc2)cc1	i
CC(C)n1c(=N)c(C(=O)NCCc2ccccc2)cc2c(=O)n3ccccc3nc21	i
CCC(C)N1CC23C=CC(O2)C(C(=O)OCc2ccccc2)C3C1=O (stereo unspecified)	i
CN(C)C1(c2nnnn2CCOC(=O)Nc2ccc(Cl)cc2)CCCCC1	4.6
O=C(NCc1ccncc1)/C(=N/O)c1ccccc1	i
C=CCN=C1SC(C)C(=O)N1S(=O)(=O)c1ccccc1 (stereo unspecified)	1.5
CCC(C)[C@H](NC(=O)OC(C)(C)C)C(=O)N/N=C/c1cccc2nccnc12 (stereo partly specified)	4.3
CC1(C)Cc2c(c(N3CCOCC3)nc3sc(-c4ccc(C(=O)O)o4)c(N)c23)CO1	i
S=C(NCc1ccco1)N1CCN(Cc2ccco2)CC1	0.1
c1ccc(CSc2nnnn2-c2ccccc2)cc1	0.1
COc1ccc(N2C(=O)CC(NC3CC3)C2=O)cc1 (stereo unspecified)	i
CCc1ccc2c(CN(CC)Cc3nc4ccccc4c(=O)[nH]3)cc(=O)oc2c1	2.3
O=C(Nc1ccccc1N1CCCCC1)c1ccc2nccnc2c1	i
Cc1cccc(Oc2ncnc3onc(C)c23)c1	0.4
